Compound activity (PubChem BioAssay)
Vif A3G: HIV-1 Vif–A3G interaction blockers – biochemical, TR-FRET, GST-Vif 1-94, biotin-A3G peptide, dose response retest, primary screen (AID 1117319); TR-FRET GST-Vif / biotin-A3G peptide binding; higher % means a stronger effect; test concentration not given here; strong numbers were not always called active; one-dose inhibition, %; IC50 in µM for titrated hits; 260,000 compounds, 0.57% hits;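 active = above the screen mean plus three standard deviations and confirmed in dose response; inconclusive = results disagree or hit not tested in dose response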;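 also: Vif residues 1-94 fused to GST binding biotinylated APOBEC3G peptide 110-148; 0% = full assay without inhibitor and 100% = GST in place of GST-Vif; retest series ran down from 100 µM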
AF4-AF9 inh: MLL-AF4/AF9 protein interaction inhibition | AlphaScreen, biotin-AF4 peptide binding to FLAG-AF9 | inhibition, % at 10 µM | 350,000 compounds, 0.47% hits | AID 651704;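 active = every replicate reaching a set inhibition limit, whatever the replicate mean, cut at about 25% in these data; inconclusive = mean inhibition reaches that limit but some replicates miss it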;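 also: 0% = plate neutral control median and 100% = total signal loss; the record names both 10 and 1 µM as test concentration; the first replicate is given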
Target sequence (P42568 whole entry, looked up): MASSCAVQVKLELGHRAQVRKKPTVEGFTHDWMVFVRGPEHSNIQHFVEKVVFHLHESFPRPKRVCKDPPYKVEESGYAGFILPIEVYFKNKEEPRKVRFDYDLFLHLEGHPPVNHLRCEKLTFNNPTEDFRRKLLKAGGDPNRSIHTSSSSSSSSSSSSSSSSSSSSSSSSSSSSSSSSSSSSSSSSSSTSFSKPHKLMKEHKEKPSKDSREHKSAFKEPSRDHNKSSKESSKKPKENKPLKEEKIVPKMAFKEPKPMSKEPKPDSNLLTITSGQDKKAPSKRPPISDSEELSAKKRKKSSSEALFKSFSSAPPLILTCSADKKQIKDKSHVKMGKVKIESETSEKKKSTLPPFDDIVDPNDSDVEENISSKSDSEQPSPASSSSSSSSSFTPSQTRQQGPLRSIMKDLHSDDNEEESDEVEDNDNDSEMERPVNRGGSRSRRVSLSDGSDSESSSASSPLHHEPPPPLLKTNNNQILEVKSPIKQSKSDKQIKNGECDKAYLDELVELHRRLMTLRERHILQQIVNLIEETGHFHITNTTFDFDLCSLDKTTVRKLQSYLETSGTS
A1 inh: inhibitors of the anti-apoptotic protein A1, read as caspase activation; 330,000 compounds, 0.066% hits; MEF A1-2A-BIM cells, Caspase-Glo 3/7 luminescence, 3 h; percent of clofoctol response, vehicle zero; caspase activation, % (concentration not given with the values);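 active = over half of replicate activation scores above 10%, or exactly half above 10 with the replicate mean above 10; inconclusive = replicate mean below 10 yet half the replicates above 10; inactive = over half of replicates below 10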;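 also: wells of about 30 µL received 50 nL stock; many hits fall short of the cut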
Calb FLC: C. albicans growth modulation with fluconazole; C. albicans CaCi-2 (fluconazole-resistant clinical isolate) + fluconazole, Alamar Blue growth, 48 h; growth inhibition, % (test concentration not listed); 300,000 compounds, 0.57% hits;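 active = most replicates above 75%; inconclusive = exactly half above 75%; inactive = most below 75%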;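 also: all wells also contain fluconazole at 8 µg/ml as a sub-toxic cotreatment; 0% = median of DMSO wells and 100% = median of geldanamycin control wells; wells of about 8 µL received 7.5 nL stock; the first replicate is given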
Beta cell apopt: beta cell apoptosis inhibition; INS-1E cytokine-induced death, ATP luminescence, 48 h; percent of positive-control rescue, neutral wells zero; protection from apoptosis, % (test concentration not listed); 300,000 compounds, 0.8% hits;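 active = all replicates at 75% or more, or half of them and the mean; inconclusive = half reach 75% but not the mean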;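 also: 0% = cytokine-treated negative control wells and 100% = positive control rescue; higher means more ATP so stronger rescue from cytokine killing; wells of about 40 µL received 100 nL stock; the first replicate is given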
T cruzi inh: T. cruzi replication inhibition | T. cruzi beta-gal in NIH3T3, luminescence, 90 h | inhibition, % (no concentration beside the values) | 300,000 compounds, 1.4% hits | AID 1885;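 active = mean inhibition across valid replicates above about 55%, limit read from the data; inconclusive = mean below that limit but half or more replicates reach it; inactive = mean below it, under half of replicates reach it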;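 also: signal also drops with host cell toxicity which is not excluded here; 0% = plate median of DMSO wells and 100% = zero luminescence signal; higher percent means less beta-gal luminescence so fewer parasites; stock transfer was 50 nL into about 50 µL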
LANA-H2A inh: blocks KSHV LANA binding to histone H2A/H2B | cell-free LANA-H2A/H2B peptide, fluorescence polarization | 320,000 compounds, 0.6% hits | Q9QR71 | inhibition, % (no concentration beside the values); in the data active = inhibition mostly above about 10%, no sharp cut-off; inactive = mostly below about 6.7%;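 also: stock transfer was 7.5 nL into about 10 µL; 0% = median of vehicle wells and 100% = median of positive control wells; one replicate is shown; the record names a cut of 25% in any replicate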
RanGTP-Imp inh: disruptors of Ran-importin-beta complex formation – biochemical, FRET, CFP-Ran, YFP-importin-beta, homogeneous, primary screen. AID 2216. cell-free CFP-Ran/YFP-importin-beta FRET ratio. 300,000 compounds, 1.1% hits. inhibition, % (no concentration beside the values);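 active = most replicates above 15%; inconclusive = exactly half above 15%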;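 also: 0% = DMSO wells and 100% = Ran loaded with GDP instead of GTP; wells of about 40 µL received 100 nL stock; the first replicate is given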
An asterisk follows results filed as active; ? = inconclusive; nt = not tested or not shown.

SMILES | Vif A3G | AF4-AF9 inh | A1 inh | Calb FLC | Beta cell apopt | T cruzi inh | LANA-H2A inh | RanGTP-Imp inh
N#CCc1c(C#N)c(N)nc(N2CCN(C=O)CC2)c1C#N | -8% | 0.6 | -0.5 | 13 | -2 | -4 | 0.9 | 1.3
C=CCNC(=O)c1ccc2c3n(nc2c1)-c1ccc(C)cc1CO3 | 7% | -0.8 | -3.2 | -2 | 2 | 9 | -6.0 | -2.7
O=C(O)CCn1c(=O)sc2ccccc21 | -5% | nt | 0.2 | -3 | -2 | -10 | 1.7 | -3.0
COc1ccccc1N1C(=O)CC(N2CCc3ccccc32)C1=O (stereo not given) | ? | nt | 0.0 | 10 | 6 | -8 | -4.7 | 1.6
CC1=C(C(=O)OC2CCCC2)C(c2coc3ccccc3c2=O)C2=C(CCCC2=O)N1 (stereo not given) | -4% | 7.6 | 0.6 | 6 | -1 | -3 | 1.2 | 1.5
NC(=NCCc1ccccc1)NS(=O)(=O)c1cccs1 | nt | -1.7 | 0.6 | 2 | -12 | -17 | 0.0 | -0.6
COc1ccc(OC(C)C(=O)NCC2CCCO2)cc1 (stereo not given) | 5% | -0.5 | 0.8 | 3 | -1 | -6 | -1.0 | 1.1
CCCn1c2ccccc2c2cnn(CC(=O)NCCCN3CCCCC3)c(=O)c21 | nt | -0.4 | 0.4 | -5 | -3 | -8 | 2.6 | 9.5
COCCn1c(=O)[nH]c2cc(C(=O)Nc3cccc(C(C)=O)c3)ccc2c1=O | nt | nt | 1.9 | -11 | 1 | -16 | -0.6 | 0.8
CCOc1ccc(NC(=O)C(=O)N/N=C/c2cccnc2)cc1 | 6% | -20 | 0.1 | 21 | 0 | -10 | -1.2 | ?
Cn1c(=O)c(C(=O)NCCO)c(O)c2ccccc21 | 8% | -0.7 | 1.4 | 3 | -6 | -13 | 9.6* | 6.5
Cc1ccc(NC(=S)c2nc3ccccc3s2)cc1 | 0% | nt | -10 | -14 | 9 | nt | 6.0 | -3.0
Cc1ccc(CCP(=O)(O)CN2CCOCC2)cn1 | -3% | nt | -0.9 | -3 | -6 | -5 | -9.0 | -1.2
Cc1ccc(C(C(=O)NCc2ccco2)N(C(=O)Cc2cccs2)c2cccnc2)cc1 (stereo not given) | nt | -1.6 | 3.4 | 22 | -4 | -9 | 4.5 | -0.3
CCOc1ccc(-c2ccc(SCC)nn2)cc1 | 6% | -1.3 | -8.2 | -19 | 5 | nt | 2.1 | nt
CC1(C)OC(=O)N(CCc2ccccc2)C1(C)O (stereo not given) | -3% | nt | 0.6 | 5 | nt | -3 | 1.0 | -1.9
CCCCCCSC1=C(C#N)C(=O)NC2(CCCCC2)S1 | -3% | nt | -2.7 | 1 | 1 | -1 | -2.9 | -0.7
COc1ccc(C(=O)N(c2ccccc2)C2C=CS(=O)(=O)C2)cc1 (stereo not given) | 1% | nt | 0.6 | 3 | -8 | -1 | 0.6 | -2.7
Cc1cnc(NC(=O)C2(c3ccccc3)CC2)s1 | -9% | 1.1 | 0.7 | -9 | -4 | 1 | -0.3 | -2.8
COc1ccc(S(=O)(=O)CCC(=O)N2CCN(c3ccc(C(C)=O)cc3)CC2)cc1 | nt | -1.1 | 0.0 | -19 | -6 | 1 | 13* | -0.5
COc1cccc(OC)c1C(=O)Nc1ccccc1Sc1ccccc1 | nt | -3.0 | 0.7 | 32 | -10 | 14 | -1.0 | -2.8
Cn1nc(C(=O)NNC(=O)c2cccc(Cl)c2)ccc1=O | -9% | -4.2 | -0.5 | nt | -6 | nt | -3.9 | nt
COc1ccc(-c2nn(-c3ccccc3)cc2/C=C/C(=O)NCCCn2ccnc2)cc1OC | -4% | 18 | 0.1 | 14 | 13 | 11 | -6.3 | -1.7
CCN(C(=O)c1cc([N+](=O)[O-])ccc1NCc1cccnc1)c1ccccc1 | -7% | 0.2 | -0.1 | -12 | nt | 10 | -2.8 | -1.1
COC(=O)C1(C(F)(F)F)N=C2Sc3ccccc3N2C(N2CCOCC2)=N1 (stereo not given) | -5% | 2.5 | 0.5 | -5 | -5 | -8 | -6.1 | -1.9
N=c1c2c3c(sc2ncn1CCN1CCOCC1)CCCC3 | 5% | nt | 0.1 | -4 | -2 | -8 | -2.6 | -1.5
COC1CCCN(C(=O)c2cccc(OC3CCN(S(=O)(=O)N(C)C)CC3)c2)C1 (stereo not given) | nt | -1.8 | 1.6 | 10 | 1 | -6 | -0.6 | 6.2
C=C(C)c1cccc(C(C)(C)NC(=O)Nc2cc(C)ccc2OC)c1 | -8% | nt | 1.4 | -5 | 0 | 16 | 3.4 | -2.3
O=C(N/N=C/c1ccco1)c1ccc(NC(=O)c2ccc(Cl)cc2)cc1 | nt | 2.3 | -0.4 | -10 | -1 | -3 | -3.1 | 2.3
Cc1nn(C)c(Cl)c1C(=O)NCC(=O)Nc1ccc(C(C)C)cc1 | 17% | 1.1 | 0.3 | 1 | 4 | -13 | -2.1 | -2.0
Cc1ccccc1OCC(=O)NNC(=O)C1CCN(c2ncnc3sc(C)c(C)c23)CC1 | -9% | -8.3 | -0.8 | -2 | 5 | -5 | 6.6 | nt
Cc1ccc(C2=NS(=O)(=O)N(C)C(C(=O)NCc3ccc(F)cc3)=C2)cc1 | nt | 1.1 | 0.5 | 0 | -3 | 0 | 4.7 | 10
CCOc1ccc(N=C2NC(=O)S/C2=C\c2ccc(Cl)cc2)cc1 | -3% | nt | 0.9 | 9 | 0 | -25 | -1.0 | 4.1
Cc1onc(-c2c(F)cccc2Cl)c1C(=O)OCC(=O)c1c[nH]c2ccccc12 | 8% | 0.6 | 0.9 | -4 | 0 | 15 | 29* | -2.2
Cc1noc(C)c1C(=O)OCC(=O)Nc1ncc(C(F)(F)F)cc1Cl | nt | -0.1 | -0.4 | nt | -4 | nt | 3.7 | nt
COC(=O)N1CCc2c(sc(NC(=O)C3COc4ccccc4O3)c2C(N)=O)C1 (stereo not given) | -11% | 0.6 | 0.8 | 35 | nt | 8 | 2.1 | -1.3
COc1ccc(CCNC(=O)Cn2cccc2C(=O)c2ccccc2C)cc1OC | -8% | 2.2 | 0.5 | -9 | 2 | 10 | 3.2 | -1.0
O=C(c1cccc(S(=O)(=O)N2CCCC2)c1)c1cccc(S(=O)(=O)N2CCCC2)c1 | -3% | nt | 0.0 | 5 | 10 | 35 | -1.3 | 1.8
O=C(NCc1ccc(F)cc1)c1cc2c(cc1Cl)N1CCCCCC1=NS2(=O)=O | 1% | 2.0 | -1.0 | nt | 2 | nt | 3.6 | nt
COc1ccc(C(=O)N2CCN(Cc3cc(OC)c(O)c(OC)c3)CC2)cc1OC | -3% | nt | 1.7 | 4 | -5 | -15 | 0.1 | 1.0
CCC(C)c1ccc(NC(=O)C2=CC=CN3CCS(=O)(=O)N=C23)cc1 (stereo not given) | -3% | 1.4 | -0.1 | nt | -8 | nt | -0.7 | nt
CCOc1ccc2nc(SCC(=O)Nc3ncccn3)[nH]c2c1 | 4% | nt | -0.4 | 7 | -1 | -3 | 1.8 | 1.6
COCCNC(=O)C1CC(c2ccc(C(F)(F)F)cc2)=NO1 (stereo not given) | nt | -2.9 | -0.4 | -4 | -9 | -28 | -1.3 | -1.2
O=C(Nc1ccc(Oc2ccccc2)cc1)c1cnc2n(c1=O)CCS2 | 3% | -0.5 | -6.0 | -1 | nt | -5 | 0.2 | -6.1
O=C(NNc1cccc(Cl)n1)Nc1ccc(Cl)cc1 | 3% | nt | 0.9 | -4 | 1 | 0 | -1.7 | 4.3
N#Cc1ccc(-c2ccc(OCC3CNC(=O)O3)cc2)cc1 (stereo not given) | nt | -11 | -1.7 | -6 | 35 | -12 | 13 | 0.1
COc1ccc(CNC(=O)C2CCN(S(=O)(=O)c3cccc4nsnc34)CC2)cc1 | nt | -4.7 | -0.3 | 15 | -7 | -10 | -8.7 | 2.9
COC(=O)c1ccc(CN(C)S(=O)(=O)c2ccc(C)cc2)o1 | 3% | nt | 0.4 | 9 | -3 | -8 | 11 | 2.2
COc1ccccc1N1CCN(C(CNC(=O)C2CCCCC2)c2cccnc2)CC1 (stereo not given) | 15% | -10 | nt | 0 | 8 | 43 | -0.9 | -1.5
CC#CC[N+](C)(C)CCCCCC | 2% | nt | 0.5 | -2 | 0 | -9 | 2.0 | 1.4
Continued:
SMILES | Vif A3G | AF4-AF9 inh | A1 inh | Calb FLC | Beta cell apopt | T cruzi inh | LANA-H2A inh | RanGTP-Imp inh
CCC(=O)NC(c1ccco1)c1cc(Cl)c2cccnc2c1OC (stereo not given) | nt | -2.0 | 0.6 | nt | -2 | nt | -3.3 | nt
COc1ccc(NC(=O)c2cc(Br)ccc2Cl)c([N+](=O)[O-])c1 | -7% | 2.5 | 0.2 | 39 | -3 | 4 | 15 | 5.9
O=C(NCCN1CCOCC1)C1CCC(=O)N1C1CCCCC1 (stereo not given) | -5% | nt | -0.5 | -16 | -6 | -3 | -2.5 | 0.8
CCC(C)c1ccc(O)c(NC(=O)c2cncc(Br)c2)c1 (stereo not given) | 1% | -42 | -0.4 | -2 | 2 | 2 | -0.7 | -3.3
O=C(N/N=C/c1ccc(OCc2cnc(Cl)s2)cc1)c1ccncc1 | nt | -1.0 | -1.7 | 20 | -7 | 3 | 0.2 | -3.4
CC1CN(c2ccc([N+](=O)[O-])cn2)CC(C)O1 (stereo not given) | -3% | 0.9 | 0.7 | -18 | nt | -12 | 0.0 | 0.3
N#Cc1c(NC(=O)CSc2n[nH]c(N)n2)oc(-c2ccccc2)c1-c1ccccc1 | -1% | nt | -0.5 | 35 | -3 | 4 | 1.5 | ?
Cc1ccc(C(=O)OCC(=O)N2c3ccccc3NC(=O)C2(C)C)cc1S(=O)(=O)N1CCCCC1 | -2% | 0.8 | 0.3 | nt | -3 | nt | 3.3 | nt
Cc1cc(C)nc(NC(=O)/C=C/c2ccc(Cl)cc2)n1 | 6% | 1.6 | -1.4 | 1 | 4 | 8 | 1.4 | 7.4
COc1ccc(N2CCN(CC(O)c3c[nH]c4ccc(OC)cc34)CC2C)cc1 (stereo not given) | 3% | nt | 0.8 | -6 | 5 | 42 | 3.4 | 2.4
CCC(=O)N(C)C(c1ccccc1Cl)c1nnnn1-c1c(C)cccc1C (stereo not given) | -4% | nt | -0.4 | 26 | 10 | -7 | 0.0 | 4.0
Cc1ccc2c(Cl)c(C(=O)NCc3cccnc3)sc2c1 | 10% | nt | -0.5 | 39 | 2 | 28 | 4.8 | -0.6
COc1ccc(CC(=O)NNC(=O)CSc2nnc(C)n2-c2ccccc2)cc1 | nt | -2.7 | 0.3 | 0 | -4 | -13 | -7.0 | 0.2
COc1cc(C2C3=C(Nc4nc(N)[nH]c(=O)c42)c2ccccc2C3=O)ccc1O (stereo not given) | 17% | 17 | 0.4 | 3 | -2 | -16 | 2.5 | -0.6
COc1c(Cl)cccc1-c1cn2ccc(C)cc2n1 | 5% | -1.6 | -7.9 | 0 | 3 | 14 | -2.1 | 0.8
CC(NC(=O)c1ccccc1)C(=O)OCC(=O)c1c(N)n(C)c(=O)n(C)c1=O (stereo not given) | 6% | 0.3 | 1.4 | nt | -7 | nt | -17 | nt
